Screens deposited in PubChem BioAssay by National Center for Advancing Translational Sciences (NCATS).
TRPV1 potentiator: potentiators of human vanilloid receptor 1 (TRPV1) | Q8NER1 | TRPV1-expressing cells, Fluo-8 calcium influx, capsaicin EC20 potentiation; host cell line not named in the record; control for the full effect not named in the record | potentiation, % at 8.33 µM | 0.02% of 320,000 active | AID 540277; active means potentiation above 80%; inconclusive means 30% to 80%; inactive means below 30%; note: 0% is about no effect
Target sequence (Q8NER1 whole entry, looked up): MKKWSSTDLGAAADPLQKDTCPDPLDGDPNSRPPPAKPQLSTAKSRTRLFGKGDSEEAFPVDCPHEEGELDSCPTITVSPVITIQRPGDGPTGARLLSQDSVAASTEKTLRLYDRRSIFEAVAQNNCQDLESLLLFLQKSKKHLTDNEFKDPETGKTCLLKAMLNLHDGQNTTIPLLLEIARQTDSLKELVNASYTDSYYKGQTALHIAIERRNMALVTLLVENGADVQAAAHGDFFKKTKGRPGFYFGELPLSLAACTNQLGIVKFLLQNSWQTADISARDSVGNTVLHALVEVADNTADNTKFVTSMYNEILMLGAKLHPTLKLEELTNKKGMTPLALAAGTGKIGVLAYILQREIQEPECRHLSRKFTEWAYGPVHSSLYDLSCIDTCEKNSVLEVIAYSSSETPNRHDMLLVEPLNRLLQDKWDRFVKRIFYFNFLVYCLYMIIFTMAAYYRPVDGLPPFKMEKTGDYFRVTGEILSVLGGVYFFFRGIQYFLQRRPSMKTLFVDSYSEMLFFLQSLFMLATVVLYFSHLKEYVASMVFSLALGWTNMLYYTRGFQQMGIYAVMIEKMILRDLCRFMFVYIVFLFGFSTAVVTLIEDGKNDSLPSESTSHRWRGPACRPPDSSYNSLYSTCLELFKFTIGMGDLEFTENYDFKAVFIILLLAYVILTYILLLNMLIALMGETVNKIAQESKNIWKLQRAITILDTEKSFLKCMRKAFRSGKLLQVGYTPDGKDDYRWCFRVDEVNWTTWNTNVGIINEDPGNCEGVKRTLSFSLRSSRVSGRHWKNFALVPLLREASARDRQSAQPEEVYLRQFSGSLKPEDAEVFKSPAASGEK
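Fluo-8 calcium influx in TRPV1-expressing cells, kinetic read (ex 480/em 520 nm). Compound added and read 3 min for agonist activity, followed by capsaicin at EC20 final and 2 min further read for enhancement.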
Sfp inh: Sfp phosphopantetheinyl transferase inhibition | AID 1490 | Q9F4F7 | Potency, µM, without a hit: max response, negative = inhibition, usual class: inhibitors | 3.5% of 310,000 active | Biochemical Sfp PPTase activity, qHTS; active = well fitted inhibition curve with a large enough effect; inconclusive = small, poorly fitted or top-dose-only effect, or another doubt; inactive = no such curve, though single readings can be large or run the other way;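 note: the enzyme is Sfp with the accession as filed and its product quenches rhodamine fluorescence; potency is the fitted concentration of half-maximal effect; 0% = enzyme reaction without inhibitor and -100% = no enzyme wells; top concentration of the series not given in the record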
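Sfp 15 nM + cpd, 15 min RT; start w/ rhodamine-CoA 5 uM, BHQ-2-YbbR 12.5 uM (final); 50 mM Hepes pH 7.6, 10 mM MgCl2, 0.01% NP-40, 0.01% BSA; read 525/598 nm at 0 and 30 min.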
Menin-MLL FL inh: menin-MLL binding inhibition, fluorescein peptide. FP activity change, % at 61.4 µM. 290,000 tested, under 10 active. Fluorescence polarization, fluorescein-MLL peptide displacement from menin. AID 1766; inconclusive = falling polarisation curve, or a change in total fluorescence; inactive = total fluorescence flat and polarisation flat or rising; no compound was filed as active; the % refers to the polarisation; negative = inhibition;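 note: % of control where 0% means no effect; inhibitors lower the polarisation; unlabelled MLL peptide was the positive control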
PINK1 expr mod: PINK1 expression modulation. 0.2% of 410,000 active. Potency, µM (doses to about 76.6 µM), inactives show at the top dose activation (PINK1 increase), most hits filed as activators. AID 624263. PINK1 immunofluorescence, high-content cytometry, 24 h; active = well fitted activation curve with a large enough effect; inconclusive = small, poorly fitted or top-dose-only effect; inactive = flat fitted curve, though single readings scatter; cell line not stated here;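 note: potency is the fitted concentration of half-maximal effect; % of control where 0% means no effect; nearly all actives have a fitted effect of over 65% in size; a mitochondrial uncoupler was the plate control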
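PINK1 protein, normally rapidly degraded, was detected by immunofluorescence after 24 hour compound treatment of a stable cell line. Titration data (5 concentrations) came from laser-scanning cytometry, with CCCP-treated wells as controls.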
ClpP mod: qHTS Assay for Activators of ClpP. 1.9% of 340,000 active. Potency, µM (titrated, usually from 57.5 µM), without a hit: at the top dose activity change, negative = active. purified B. subtilis ClpP, FRET peptide cleavage, 20 min; active = well fitted falling curve with a large enough effect; inconclusive = small, poorly fitted or top-dose-only effect; inactive = no such curve, though single readings can be large or run the other way; note: potency is the fitted concentration of half-maximal effect; the source files actives as falling curves though it sought activators and does not explain the sign; nearly all actives have a fitted effect of over 65% in size; many hits overshoot -100%
Target sequence (P80244 whole entry, looked up): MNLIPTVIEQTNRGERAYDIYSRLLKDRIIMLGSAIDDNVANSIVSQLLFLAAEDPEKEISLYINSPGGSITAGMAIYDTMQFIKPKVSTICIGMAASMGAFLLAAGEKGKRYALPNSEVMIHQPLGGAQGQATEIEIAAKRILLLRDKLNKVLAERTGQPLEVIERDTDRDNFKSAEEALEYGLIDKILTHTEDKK
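Purified B. subtilis ClpP, 10 microg/mL final in Tris/HCl pH8 with KCl, BSA, glycerol and Tween-20, cleaved an Abz/nitrotyrosine-quenched decapeptide. Fluorescence (ex 320, em 430) was read at 0 and 20 min at room temperature. Delta was normalized to 5.8 microM ADEP and DMSO/no-enzyme controls.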
TRPML1 blocker: human mucolipin-1 channel inhibition; Q9GZU1; TRPML1-inducible cells, Ca2+ dye fluorescence, FDSS; active compounds read low; inhibition of EC80 agonist-evoked calcium signal; activity change, negative = inhibition, % (no concentration beside the values); 0.02% of 390,000 active; in the data active means activity change below about -50%; inconclusive means about -30% to -50%; inactive means above about -30%;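 note: stimulus is agonist 54-4 at its EC80 concentration; % is set by controls: 0 for no effect and ±100 for the full control effect; compound concentration not given in the record; the text of the record puts the active cut at -80%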
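TRPML1-DL cells, Tet-induced overnight (~16 h, 37 °C) at 1,500 cells/well, were loaded with Ca8 no-wash dye plus quencher for 45-90 min at room temperature. Compounds were pinned during FDSS kinetic reading; agonist 54-4 at EC80 (4 uM final) then added.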
TRPML1 agonist: agonists of human TRPML1 channel | TRPML1-expressing cells, Ca2+ dye fluorescence, FDSS; host cell line not named in the record; reference of the full effect not given here | activation, % (concentration not given with the values) | Q9GZU1 | 0.12% of 410,000 active; in the data active = activation above about 50%; inconclusive = about 30% to 50%; inactive = below about 30%; note: 0% is about no effect; the text of the record puts the active cut at 80%
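In this qHTS format, compounds were pin-transferred onto Ca8-dye-loaded TRPML1-DL cells induced with Tet overnight, and intracellular Ca2+ fluorescence was recorded kinetically for 110 s after a 10 s baseline. A subsequent 4uM final 54-4 (EC80) addition followed by a second 110 s read served as the antagonist phase.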
Numbers without * were called inactive; u = inconclusive; x = not tested or not shown; & = joins results of further samples; [ ] = dose if it differs, or a comment.

Structure	TRPML1 agonist	Menin-MLL FL inh	Sfp inh	TRPML1 blocker	ClpP mod	PINK1 expr mod	TRPV1 potentiator
Cc1ccc2c(C)cccc2c1	-0.4	x	x	-21	-1.2%	-0.6%	x
COc1ccc(NC(=O)N2CCC3(CC2)OCCO3)cc1OC	0.1	-1.4	3%	-2	-0.8%	1.8%	4
CCCCCCn1c(=O)c(C(=O)Nc2nc(CC(=O)OCC)cs2)c(O)c2ccccc21	-0.3	0.6	21%	-5	x	5.0%	-12
Cc1cc(C)cc(NC(=S)NC2CC3CCCC(C2)N3Cc2cccs2)c1 (stereo not drawn)	0.4	7.1	15%	3	-3.1%	x	13
COC(=O)c1c2[n+](cc3cc(OC)c(OC)cc13)CCc1cc(OC)c(OC)cc1-2	0.2	x	x	-20	x	-0.1%	x
Cc1ccc(N2C(=O)NC(=O)/C(=C/c3ccoc3)C2=O)cc1	0.4	u	25µM*	-3	x	2.1%	16
COC(=O)C1=C(c2ccc(F)cc2OCc2ccccc2)C[C@@H]2CC[C@H]1N2C(=O)NCc1ccc(Br)cc1	1.7	x	x	19	-1.2%	0.3%	-1
CCn1cc(C(=O)c2cccs2)c2ccccc21	-0.7	1.6	6%	3	-0.4%	2.2%[38.3 µM]	9
Cc1cccc(OCC(=O)N2CCN(Cc3ccc4c(c3)OCO4)CC2)c1	-0.2	4.4	-28%	-8	x	-0.8%	-25
O=C(COc1ccccc1)N1CCN(Cc2c[nH]c3ccccc23)CC1	-0.5	u	1%	0	0.2%	-1.4%	4
Cn1c(=O)cc(OCCCC(=O)N2CCC3(CC2)OCCO3)c2ccccc21	-0.3	-0.3	20%	0	-6.0%	-0.5%	-4
O=c1cccc2n1CC1CC2CN(c2nc(N3CCCCC3)nc(N3CCCCC3)n2)C1 (stereo not drawn)	-0.8	3.0	9%	-2	x	2.2%	-3
CCC1CCC(C)N(N=O)C1 (stereo not drawn)	-0.1	x	x	-8	1.9%	-0.2%	x
CCC[N+]12CCC(CC1)C(=C(c1ccccc1)c1ccccc1)C2	0.4	-10	17%	30	-1.2%	-1.2%	5
O=C(O)c1ccccc1NC(=O)C1C2CCC(O2)C1C(=O)O (stereo not drawn)	x	-0.9	3%	x	x	x	u
CC(C)(C)c1ccc(O)c(CN2CCN(c3ccccc3)CC2)c1	-0.4	-4.3	5%	10	1.0%	2.7%	8
COC(=O)C1=C(c2ccc(-c3ccccc3)c(F)c2)C[C@@H]2CC[C@H]1N2C(=O)NCC1CC1	1.8	x	x	2	u	u	-10
CCCCn1c(C)c(C(=O)O)c2cc(OC)c3ccccc3c21	2.5	u	2%	11	3.3%	0.7%	-4
N#CCN1CCN(c2ccc(C(F)(F)F)cc2)CC1	-0.2	-0.1	18%	34	6.5%	1.9%	3
COC(=O)C1=C(c2ccc(F)cc2OCc2ccccc2)C[C@@H]2CC[C@H]1N2C(=O)NC1CCCCC1	-0.2	x	x	21	0.8%	3.3%	-14
O=C1NC(c2cccnc2)Nc2sc3c(c21)CCCC3 (stereo not drawn)	-0.2	-1.2	-23%	5	-23%	-3.1%	-9
c1ccc(CN2Cc3ccccc3-n3nncc3C2)nc1	0.0	x	x	-19	-6.1%	0.1%	x
Nc1ccc2c3c(cccc13)-c1ccccc1-2	u	x	x	-6	x	11µM*	x
O=c1[nH]c(=O)n(CCC2=CCCCC2)c(O)c1C=NCCN1CCNCC1	0.6	u	11%	-21	-7.6%	2.8%	-6
Cc1ccc(-n2c(O)c(C=NCCN(C)C)c(=O)[nH]c2=O)cc1	0.4	12	4%	-5	x	1.0%	8
O=C(Nc1ccc(Cl)cc1C(=O)c1ccccc1)c1ccco1	3.5	0.5	0%	3	-2.9%	3.1%	-8
Cn1ccnc1P(=S)(c1nccn1C)c1nccn1C	0.0	1.8	50µM*	2	0.9%	x	-7
CCCCn1c(O)c(C(C)=NC(Cc2c[nH]c3ccccc23)C(=O)OC)c(=O)[nH]c1=O (stereo not drawn)	-0.7	4.6	12%	-4	1.2%	-2.1%[38.3 µM]	-1
C[C@]12CC[C@H](O)C[C@@H]1CC[C@@H]1[C@@H]2CC[C@]2(C)[C@@H](C(=O)O)C[C@@H]12	-0.8	x	x	-11	1.3%	0.6%	-16
C[C@@H]1CN([C@@H](C)CO)C(=O)CCCn2nncc2CO[C@H]1CN(C)C(=O)Oc1cccc2ccccc12	0.1	x	x	-6	-1.1%	1.0%	x
CC(=O)[C@@]1(O)CC[C@H]2[C@@H]3C[C@H](C)C4=CC(=O)CC[C@]4(C)[C@H]3CC[C@@]21C	1.3	2.7&1.2	-7%&13%	31	-2.3%	u	-10
NNC(=O)c1nc[nH]c1C(=O)Nc1ccc(Cl)cc1C(=O)c1ccccc1	0.1	-2.2	11%	-19	-1.6%	2.7%	1
CC(Cc1ccccc1)N1C(=O)c2ccccc2C1=O (stereo not drawn)	1.6	3.8	-10%	-7	-0.6%	1.4%	-11
Clc1cc(Cl)c(-c2cc(Cl)c(Cl)cc2Cl)cc1Cl	0.6	x	x	13	-1.8%	0.1%	-3
CCCCn1c(O)c(/C=N/NC(=O)c2ccncc2)c(=O)[nH]c1=S	0.9	u	-8%	4	-0.1%	2.9%	-8
Cc1nc2cc([N+](=O)[O-])ccc2c(=O)n1-c1cccc(Br)c1	0.1	x	x	-2	-0.9%	-0.3%	x
CCCCOc1ccc(CN2CCN(CCO)CC2)cc1	0.4	1.1	5%	3	-2.0%	-1.2%[38.3 µM]	-9
C/C=C1\NC(=O)[C@H](C)NC(=O)[C@@H](NC(=O)[C@H](Cc2ccc(O)cc2)NC(=O)[C@@H](NC(=O)/C(C)=C/C)C(C)C)[C@@H](C)OC(=O)[C@H](CCCc2ccc(O)cc2)NC(=O)[C@@H](CCC(=O)O)NC1=O	-0.1	x	x	-1	2.9%	3.9%	x
CSCCC(c1nnnn1-c1c(C)cccc1C)N1CCC2(CC1)C(=O)NCN2c1ccccc1 (stereo not drawn)	-0.3	x	x	x	-0.7%	1.9%	x
COc1ccc(CN2CCNCC2)c(OC)c1OC	0.4&-0.5	0.4	-5%&17%	-7&-10	-0.3%&-0.8%	-0.1%&-0.1%	-4&-14
N#Cc1ccc(/C=C/C(=O)O)cc1	0.0	4.1	7%	-2	-0.4%	0.1%	8
Cc1nn(Cc2ccccc2)c(C)c1C(=O)NC1CCCc2ccccc21 (stereo not drawn)	-0.1	9.8	0%	20	-3.3%	-1.0%	-22
O=C(Nc1cccc(F)c1)N1CC[C@@]2(CCCN(C(=O)Oc3ccccc3)C2)C1	x	-0.4	-5%	x	x	0.6%	x
CN(C)C(CNC(=O)Cc1c(Cl)cccc1Cl)c1ccccc1 (stereo not drawn)	-0.9	-1.8	-2%	13	x	-0.5%	8
CC(=NCC1CCCO1)c1c(O)n(C)c(=O)n(C)c1=O (stereo not drawn)	-0.4	2.2	10%	48	-0.9%	-2.0%	-8
c1ccc(-c2ccncc2)cc1	0.2	x	x	28	-2.0%	0.0%	x
O=[N+]([O-])c1ccc(NC2CCCC2)c2ccncc12	0.9	-25	-4%	3	x	8.1%	12
Cc1cccc(-n2c(/C=C/c3c(C)[nH]c4ccccc34)nc3ccccc3c2=O)c1	1.1	x	x	15	-1.2%	26%	x
CC12CN3CC(C)(CN(C1)C31CCSCC1)C2=O	3.5	5.4	5%	14	-1.1%	-0.6%	x
O=C1NC(=O)N(CCC2=CCCCC2)C(=O)/C1=C\c1cccs1	1.0	8.3	50µM*	-6	1.1%	3.2%	-13

The list goes on.
Structure	TRPML1 agonist	Menin-MLL FL inh	Sfp inh	TRPML1 blocker	ClpP mod	PINK1 expr mod	TRPV1 potentiator
Nc1c(C(=O)Nc2cccc(Br)c2)sc2nc3c(cc12)N1CCC3CC1	1.2	x	x	0	4.3%	1.7%	x
CN1CCN(c2nc3ccccn3c(=O)c2C=C2C(=O)N(C)C(=O)N(C)C2=O)CC1	-0.8	3.2	-18%	1	-0.5%	-2.6%	-9
CN(C)C(=O)Oc1c(Cl)cc(Cl)c2cccnc12	0.9	1.3	20%	18	x	2.2%	7
O=C(C1CCC(=O)N1Cc1ccc(F)cc1)N1CCC2(CC1)OCCO2 (stereo not drawn)	-0.5	5.6	2%	-3	0.4%	-0.3%	11
COC12CCC3(CC1C(C)(O)C(C)(C)C)[C@H]1Cc4ccc(OC5OC(C(=O)O)[C@@H](O)C(O)[C@H]5O)c5c4[C@@]3(CCN1CC1CC1)C2O5 (stereo partly drawn)	-0.3	x	x	2	-1.2%	-0.4%	x
CCCC(C)C1(CC)C(=O)NC(=Nc2ccccc2OC)NC1=O (stereo not drawn)	0.2	5.6	0%	16	0.3%	17%[38.3 µM]	-1
CN1C(=O)N(C)C(=O)C2(Cc3cc(NC(=O)c4ccc(F)cc4)ccc3N3CCCC32)C1=O (stereo not drawn)	-0.5	x	-15%	28	x	1.0%	-10
COc1ccc(C)cc1NC1=NCCCS1	0.0	-2.1	12%	12	x	1.6%	7
S=C(NCCc1ccccc1)NCCc1cnc[nH]1	-0.9	0.4	u	9	-3.8%	-0.7%	13
O=C(NCCCn1ccnc1)C(Cl)(Cl)Cl	0.0	-0.2	7%	24	1.1%	-0.3%	0
C[N+](C)(C)c1ccccc1	-0.4	2.1	-5%	-10	1.4%	1.1%	8
C[C@]12CCC3C(CC[C@H]4C[C@@H](O)CC[C@]34C)C1[C@H]1CN=N[C@H]1[C@@H]2O (stereo partly drawn)	-0.2	x	x	-1	x	0.2%	x
COC(=O)C1=C(c2cccc(C#N)c2)C[C@@H]2CC[C@H]1N2C(=O)NCCOc1ccccc1	1.3	x	x	-8	-1.0%	1.9%	1
CCc1ccc(OCC(=O)N2CCN(Cc3ccc4c(c3)OCO4)CC2)cc1	1.1	-4.1	1%	18	u	-1.9%	-10

An excerpt; the hit share may differ from the screen's.
